HCMV NEC inh – cytomegalovirus nuclear egress complex inhibition; AID 1918969; inhibition, % (no concentration beside the values); 0.15% of 190,000 active; HTRF UL50-UL53 interaction, normalized percent inhibition;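 active = both replicates at 50% or more, plus weaker picks with an unusually low signal ratio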;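 note: stock transfer was 100 nL into about 20 µL; 0% = negative control wells and 100% = wells with untagged competitor protein; inactives centre near -12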
Starred values were filed as active, the others as inactive; & = joins results of further samples. Not all compounds are listed. The share of hits here may be higher or lower than overall.

SMILES | HCMV NEC inh
Cc1noc(NS(=O)(=O)c2cccc3c(N(C)C)cccc23)c1C | -13
CCCCC/C=C\C/C=C\C/C=C\C/C=C\CCCC(=O)SCC(O)CO (configuration not stated) | -1&-1
C=CCNC(N)=S | -6&-10
COC(=O)C1=C(NC(=O)c2cc3ccccc3oc2=O)CCS1 | -23
C#CCOc1ccccc1CCCCCC(=O)O | -9&-9
CN(C)N=Nc1nc[nH]c1C(N)=O | -15&-26
FC(F)(F)c1cccc(CSc2ccc3nnc(Cl)n3n2)c1 | -16
c1ccc(-n2cc(-c3ccnc(NCc4cnc5ccccn45)n3)cn2)cc1 | -6
Cc1nc(/C(C#N)=N\O)cs1 | -35
Cc1cc(CN[C@@H](C)C(N)=O)c(C)s1 | -10
COC(=O)c1sc(N)nc1C | -13
Cc1cc2cc(CCNC(=O)CC3CCCCC3)c(=O)[nH]c2cc1C | -7
Cc1csc(-c2cc(C(=O)NCCCN3CCOCC3)cc(S(=O)(=O)N3CCOCC3)c2)c1 | -11
Cc1ccccc1Nc1ncc(-c2cccs2)s1 | -33
O=C(O)c1ccc(/C=C2/SC(=S)N(c3cccc(C(F)(F)F)c3)C2=O)cc1 | 4
CCCCC[C@@](C)(O)/C=C/[C@H]1C(=O)C[C@H](O)[C@@H]1C/C=C\CCCC(=O)O | 5&5
CCNC(=O)OCCC12CC3CC(CC(C3)C1)C2 | -8
CCOC(=O)C1CCN(S(=O)(=O)c2cccs2)CC1 | -2
CCOc1ccc(NC(=O)CC(C)O)cc1 (configuration not stated) | -64
COC(=O)c1cccc(C(=O)Nc2cccc3ccccc23)n1 | -28
COCCCN1CCC(NC(=O)c2cc(Cl)c(N)c3c2OCC3)CC1 | 11&-5
Cc1ccc(SCc2cn3c(C)cc(C)nc3n2)cc1 | -9
S=c1[nH]nc(-c2cnccn2)s1 | -73
O=C1CCCc2occ(C(=O)N3CC(=O)N(Cc4ccccc4)CC(OCc4ccccn4)C3)c21 (configuration not stated) | 0
Cc1ccc(NC2SC(=O)N(c3ccc(C)cc3)C2=O)cc1 (configuration not stated) | -10
CCN(CC)S(=O)(=O)c1ccc(C(=O)N2CCN(Cc3ccccc3)CC2)cc1 | -4
COC(=O)/C=C/c1cncc2ccccc12 | -48
CN1CCN(S(=O)(=O)c2cc(C(=O)NCC3CCCO3)cc(-c3ccccc3)c2)CC1 (configuration not stated) | -2
COc1cc(NC(=O)N2CCNC2=O)cc(C(=O)Nc2cccc(C(F)(F)F)c2)c1 | -14
CC(=O)NC(C)c1nc2ccccc2n1Cc1ccccc1F (configuration not stated) | -5
Nc1nccc(-c2ccco2)n1 | -1
COc1cccc(OCC(O)CN2CC(C)CC(C)C2)c1 (configuration not stated) | -18
O=C(O)CCN1C(=O)C2CC=CCC2C1=O (configuration not stated) | -13
CCOc1ccc(-n2c(CSc3nc(C)cc(C)n3)nnc2SC)cc1 | 1
O=C(OCc1nc2ccccc2s1)c1ccc(Cl)s1 | -14
COCCn1c2c([n+](Cc3cnccn3)c1C)C(=O)c1ccccc1C2=O | 32
O=C(O)c1ccc(C(F)(F)F)s1 | -15
NC(=O)c1c(NC(=O)C2COc3ccccc3O2)sc2c1CCCC2 (configuration not stated) | -5
NC12CC3CC(C1)CC(C(=O)O)(C3)C2 | 6&-13
CCOc1ncccc1C(=O)Nc1cccc(C(F)(F)F)c1 | 4
Clc1cccc(NCc2cn3ccccc3n2)c1 | 5
COc1ccc(CCn2nc(C(=O)N(C)C)c3c2CCN(C(=O)c2csc4c2CCCC4)C3)cc1 | -2
CC(C)=CCC/C(C)=C/CC/C(C)=C/CSCC(=O)O | -11&-11&-39
CC(NC(=O)Cc1cccs1)C(c1cccs1)N1CCN(c2ccccc2)CC1 (configuration not stated) | -9
Cc1cccc(CN2CCN(c3ncnc4sccc34)CC2=O)c1 | 10&10
CC(C)=CCC/C(C)=C/CC/C(C)=C/C(O)P(=O)(O)O (configuration not stated) | -18&-18
CCOc1ccc(Cl)cc1S(=O)(=O)N1CCCC(C)C1 (configuration not stated) | -1
COc1ccc(N/C=C(/C#N)c2cccs2)cc1 | -19
O=c1/c(=C/c2c(F)cccc2Cl)sc2nc3ccccc3n12 | -27
COc1cccc2sc(=NC(=O)c3cccc(C(F)(F)F)c3)n(C)c12 | -14
Cc1ccc(NC(=O)CSc2nnc3ccccn23)c(C)c1 | -20
O=C(NCCn1ccc2ccccc21)c1cccs1 | -9
Cc1cc(-n2ncc(C#N)c2N)nc2ccccc12 | -20
C#Cc1cccc(Nc2ncnc3cc(OCCOC)c(OCCO)cc23)c1 | 1
C=CCSc1[nH]c(=O)c(C(=O)OCC)cc1C(N)=O | -1
NC(C(=O)NC1C(=O)N2C(C(=O)O)=C(Cl)CSC12)c1ccccc1 (configuration not stated) | -77
Cc1[nH]c2ccccc2c1CCNCc1ccc(C=CC(=O)NO)cc1 | -43
CC(=O)N1CCN(C(=O)c2c(-c3ccccc3)nn(-c3ccccc3)c2C)CC1 | -5
COc1cc(OC)cc(C(=O)Nc2nc(-c3ccccc3)cs2)c1 | -26
COc1ccc(C(=O)NC2=C(C)N(C)N(c3ccccc3)C2)cc1 | -5
New compounds follow.
SMILES | HCMV NEC inh
Cc1nnc(SCC(=O)N2c3ccccc3Sc3ccccc32)n1N | -9
CCSC1=C(C#N)C(c2ccccc2OC)C(C#N)C(=O)N1 (configuration not stated) | -24
CCn1nc(C(=O)N2CCCCC2)c2c1CCC(NCc1ccc3c(c1)OCO3)C2 (configuration not stated) | -8
Cc1cc(C(F)(F)F)nn1CC(N)=O | 0
CC(Oc1cc(-c2cnn(C3CCNCC3)c2)cnc1N)c1c(Cl)ccc(F)c1Cl (configuration not stated) | 10&3&-19&-15&-11&-4
OC(c1nc2ccc(Cl)cc2[nH]1)C(O)c1nc2ccc(Cl)cc2[nH]1 (configuration not stated) | 11
O=C(CSc1nccn1-c1ccc(Cl)cc1)NCCc1ccccc1 | -10
CSC1=C(C#N)C2(CCCCC2)C(c2nc(-c3ccc(C)cc3)cs2)C(N)=N1 (configuration not stated) | -18
O=C(O)c1cc(=O)[nH]c(=O)[nH]1 | -10&-45
CCN(c1cc(-c2ccc(CN3CCOCC3)cc2)cc(C(=O)NCc2c(C)cc(C)[nH]c2=O)c1C)C1CCOCC1 | 7
COc1cccc2c(=O)n(CC(=O)Nc3ccccc3)ccc12 | 6
Cc1ccc(OCC(=O)N2CCCc3ccccc32)cc1 | 3
COc1ccc(Cl)cc1NC(=O)/C(C)=C\C(=O)O | 8&-9
CCOC(=O)c1c(NC(=O)C2CC2)sc2c1CCC2 | -1
COC(=O)C1=C(NC(=O)CSCc2ccccc2)CCS1 | -34
CCC1CCCCN1C(=O)CSc1nc2c(c(=O)n1-c1ccccc1)SCC2 (configuration not stated) | -21
COc1ccccc1-c1csc(N)n1 | 4
N=C(N)Sc1cn(CCNC(=O)c2ccccc2)c2ccccc12 | -7
CCCCCC#CCC#CCCCCCCCC(=O)O | -9&-9
COc1ccc(Cl)cc1S(=O)(=O)N1CCCCCC1 | 15
FC(F)(F)c1nnc(-c2ccccc2)nc1Oc1ccccc1 | -2
O=C(c1ccco1)N1CCN(c2nc3ccccc3s2)CC1 | -5
COc1cc(NC(=O)c2ccccn2)ccc1Cl | 4&-10
CC(=O)Nc1ccc(NC(=O)CSc2ncnc3ccccc23)cc1 | -6

Structural class: those above containing a furan ring, fused or not (3)
SMILES | HCMV NEC inh
O=C1CCCc2occ(C(=O)N3CC(=O)N(Cc4ccccc4)CC(OCc4ccccn4)C3)c21 (configuration not stated) | 0
Nc1nccc(-c2ccco2)n1 | -1
O=C(c1ccco1)N1CCN(c2nc3ccccc3s2)CC1 | -5

Remaining list, next part
SMILES | HCMV NEC inh
C=CCOC(=O)CCN1C(=O)/C(=C/c2ccccc2)SC1=S | -10
CCOC(=O)c1csc(NC(=O)C(C)(C)C)n1 | -9
O=C(Nc1ncccn1)C1c2ccccc2Oc2ccccc21 | -13
CC(C)N1C(=O)/C(=C\c2ccc(C(F)(F)F)cc2)SC1=S | -12
Nc1sc2c(c1-c1nc3ccccc3s1)CCCC2 | -13
CSc1nc2ccc(NC(=O)c3ccccc3F)cc2s1 | -20
OCCN1CC(O)C(O)C(O)C1CO (configuration not stated) | 10&-54
COc1cccc(OC)c1C(=O)N=c1sc2ccccc2n1C | 5
O=C(/C=C/c1ccco1)NCCC1=CCCCC1 | -11
COC(=O)CCC[C@H](O)[C@H](O)CO | -22&-22
O=c1ccc2ccc(OCc3ccccc3F)cc2o1 | 0
Cc1cc(NC(=O)Cn2c(C)nc(Cl)c2Cl)n(C2CCCCC2)n1 | -9
O=C1CCCC2=C1C(c1cccs1)n1ncnc1N2 (configuration not stated) | 2
CC(=O)Nc1ccc2nc(N)sc2c1 | -3
CN(C)c1nc(N)c(C(=O)Nc2cccnc2)nc1Cl | -33
CN(C)c1nc(-c2ccccc2)c2cc(Cl)ccc2n1 | 1
O=C(O)CCCCCC[C@H]1C(=O)NC(=O)N1CCC(O)C1CCCCC1 (some centres not stated) | -9&-9
CCc1ccc(-c2nn(CC(=O)Nc3cnn(C)n3)c3ccccc23)cc1 | -20&-20
COc1ccc(C(C#N)N2CCN(C(C#N)c3ccc(OC)cc3)CC2)cc1 (configuration not stated) | 13
Nc1ncnc2c1c(-c1cnc3[nH]ccc3c1)nn2C1CCCC1 | 5
CC[C@H](CO)Nc1nc(NCc2ccccc2)c2ncn(C(C)C)c2n1 | -10&-6
CCCCC1CCC(C(=O)Nc2c3c(nn2-c2ccccc2C)CS(=O)C3)CC1 (configuration not stated) | 4
Cc1cc2cc(CNC(=O)/C=C\c3ccccc3)ccc2n1C | -11
Cc1c(C2CCN(CCc3ccccc3)CC2)noc1-c1ccc(Cl)cc1 | -3
CC(C)=CCC[C@](C)(OC1OC(COC2OCC(O)C(O)C2O)C(O)C(O)C1O)C1CC[C@]2(C)[C@@H]1C(O)C[C@H]1[C@@]3(C)CCC(OC4OC(CO)C(O)C(O)C4O)C(C)(C)[C@@H]3CC[C@]12C (some centres not stated) | -5
CCCOC(=O)C(C)N1C(=O)/C(=C/c2ccc(OC)cc2)SC1=S (configuration not stated) | -7
COC(=O)C1Sc2[nH]c(=O)sc2C(c2ccc(Cl)cc2)C1C(=O)OC (configuration not stated) | -2
O=C(Oc1ccc2oc(=O)sc2c1)c1cccc(Cl)c1 | -7
CC1CC(C)CN(S(=O)(=O)c2ccc(C(=O)NCc3ccccc3)cc2)C1 (configuration not stated) | -1
CN(C)C1C(=O)C(C(N)=O)=C(O)C2(O)C(=O)C3=C(O)c4c(O)ccc(Cl)c4C(O)C3CC12 (configuration not stated) | -54
Cc1sc2ncnc(SCc3ccccc3)c2c1C | -6
CCCCCN1C(=O)C2(CCN(C(=O)N3CCCC3)CC2)Nc2ccccc21 | -3
O=C(O)CSc1nnc2sc3ccccc3n12 | -7
CN(CCOc1ccc(CC(Nc2ccccc2C(=O)c2ccccc2)C(=O)O)cc1)c1ccccn1 (configuration not stated) | -13
CC12CC3(C)CC(CC(=O)O)(C1)CC(CC(=O)O)(C2)C3 | -3
CC(C)CC(C(=O)O)N1C(=O)C2C3C=CC(C3)C2C1=O (configuration not stated) | -7
COc1cc(C)c(C)cc1S(=O)(=O)NC1CC(C)(C)NC(C)(C)C1 | -6
COc1nc(C)c(Br)c(C)c1C#N | 6
CCCCC[C@@H](O)/C=C/[C@H]1[C@H](C/C=C\CCCC(=O)O)[C@H](O)C[C@@H]1O | -19&-19
CN1CCc2c(OCC(=O)NC3CCCCC3)cccc2C1=O | -11
Nc1ccc(CCc2nc3cc(N)ccc3o2)cc1 | -16
Nc1nc(-c2ccoc2)c2[nH]cnc2n1 | 38&38
O=C(Nc1cccc(N2CCCC2=O)c1)c1cc(C(F)(F)F)ccc1Cl | -14
CC(O)c1nc2ccccc2n1C(C)C (configuration not stated) | -13
CN(C)C(=O)CSc1nnc2sc3ccccc3n12 | -14
OC(c1ccccn1)c1c[nH]c2ccccc12 (configuration not stated) | 0
Brc1ccc(-c2ccc3ccccc3n2)s1 | -6
COC(=O)c1ccccc1NC(=O)CSc1nc2ccccc2nc1C | -4
CC1(C)S[C@@H]2C(NC(=O)Cc3ccccc3)C(=O)N2C1C(=O)O (some centres not stated) | -3
O=C(O)c1cc(C(=O)O)cc(N2C(=O)CSC2=S)c1 | 7
O=C1CC(Nc2ccc(F)cc2)C(=O)N1Cc1ccccc1 (configuration not stated) | -2

By substructure: the compounds so far with a thiophene ring, fused or not (17)
SMILES | HCMV NEC inh
Cc1cc(CN[C@@H](C)C(N)=O)c(C)s1 | -10
Cc1csc(-c2cc(C(=O)NCCCN3CCOCC3)cc(S(=O)(=O)N3CCOCC3)c2)c1 | -11
Cc1ccccc1Nc1ncc(-c2cccs2)s1 | -33
CCOC(=O)C1CCN(S(=O)(=O)c2cccs2)CC1 | -2
O=C(OCc1nc2ccccc2s1)c1ccc(Cl)s1 | -14
O=C(O)c1ccc(C(F)(F)F)s1 | -15
NC(=O)c1c(NC(=O)C2COc3ccccc3O2)sc2c1CCCC2 (configuration not stated) | -5
COc1ccc(CCn2nc(C(=O)N(C)C)c3c2CCN(C(=O)c2csc4c2CCCC4)C3)cc1 | -2
CC(NC(=O)Cc1cccs1)C(c1cccs1)N1CCN(c2ccccc2)CC1 (configuration not stated) | -9
Cc1cccc(CN2CCN(c3ncnc4sccc34)CC2=O)c1 | 10&10
COc1ccc(N/C=C(/C#N)c2cccs2)cc1 | -19
O=C(NCCn1ccc2ccccc21)c1cccs1 | -9
CCOC(=O)c1c(NC(=O)C2CC2)sc2c1CCC2 | -1
Nc1sc2c(c1-c1nc3ccccc3s1)CCCC2 | -13
O=C1CCCC2=C1C(c1cccs1)n1ncnc1N2 (configuration not stated) | 2
Cc1sc2ncnc(SCc3ccccc3)c2c1C | -6
Brc1ccc(-c2ccc3ccccc3n2)s1 | -6
